Screens deposited in PubChem by Broad Institute.
YB-1 expression: YB-1 expression inhibition. U2OS, qRT-PCR YB-1 vs CDIP delta delta Cp, 16 h; hits give high values; zero = DMSO, each unit about twofold. 30,000 tested, 0.37% active. delta delta Cp (YB-1 minus CDIP) (concentration not given with the values). AID 434959;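 active means delta delta Cp rounded down to an integer at or above 3, about 3 SD of DMSO wells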;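 further: higher means less YB-1 transcript or more CDIP transcript relative to DMSO; stock transfer was 100 nL into about 100 µL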
PD-1 reverse act: activators reversing PD-1 mediated T-cell inhibition; primary human CD4 T cells, PD-L1 beads, CellTiter-Glo 96 h; activation, % (concentration not given with the values); 29,000 tested, under 10 active;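 active means replicate mean of 50% or more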;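 further: 0% = median vehicle wells and 100% = positive control; 100 nL library stock added to about 50 µL; numbers are from one replicate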
Shh pathway inh: Sonic Hedgehog pathway inhibition; Shh-LIGHT2 Gli-luciferase reporter, 30 h; inhibition, % (concentration not given with the values); 22,000 tested, 2.1% active;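 active means replicate mean of 65% or more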;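 further: pathway switched on by Shh-conditioned medium diluted 1 in 25 in low serum; 100 nL library stock added to about 40 µL; 0% = median of neutral wells and 100% = positive control level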
MITF inhib: inhibitors of MITF. TRPM1 promoter luciferase, luminescence, 24 h. inhibition, % (no concentration beside the values). 37,000 tested, 0.28% active;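 active means most replicates at 85% or more, or half of them and the mean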;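 further: human melanocyte line stably carrying TRPM1 promoter luciferase reporter; 0% = vehicle wells and 100% = a positive control; the first replicate is given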
Starred values were filed as active, the others as inactive; . = no result given. Not all compounds are listed; rates above refer to the full screens.

SMILES	YB-1 expression	PD-1 reverse act	Shh pathway inh	MITF inhib
COC(=O)[C@@H]1C[C@@]23C=CC[N+]4([O-])CC[C@@]5(c6ccccc6N[C@@]15C2C)[C@H]34 (some centres undefined)	-0.072	1.0	6	14
C[C@H]1CN([C@@H](C)CO)C(=O)c2cc(NC(=O)NC3CCCCC3)ccc2O[C@H]1CN(C)C(=O)Nc1cccc2ccccc12	0.31	0.1	-2	1
C[C@@H]1CN([C@@H](C)CO)C(=O)c2cccc(NC(=O)c3ccncc3)c2O[C@H]1CN(C)S(=O)(=O)c1cccs1	-0.12	0.5	0	-2
COc1cc(NC(=O)CSc2nnc(-c3ccncc3)n2-c2ccc(C)cc2)cc(OC)c1	.	-2.0	.	9
C[C@@H]1CN([C@H](C)CO)C(=O)c2cccc(NC(=O)Nc3ccc(F)cc3)c2O[C@H]1CN(C)Cc1ccncc1	-0.071	.	11	4
Cc1cc(C)cc(N(CC(=O)Nc2ccc(Br)c(Cl)c2)S(C)(=O)=O)c1	.	0.9	.	-5
N#C/C(=C\c1ccc(O)c(O)c1)C(=O)NCc1ccccc1	0.27	-7.0	65	-34
COc1ccc(-c2cc(C(F)(F)F)nc(SCC(=O)Nc3cc(F)ccc3C)n2)cc1OC	.	-2.4	.	-14
C[C@@H]1CCCCO[C@@H](CN(C)C(=O)c2ccncc2)[C@@H](C)CN([C@H](C)CO)C(=O)c2cc(NS(=O)(=O)c3cn(C)cn3)ccc2O1	-16	.	-12	17
Cc1ccc(C(=O)NC2(C(F)(F)F)C(=O)N(Cc3ccccn3)C3=C2C(=O)CC(C)(C)C3)cc1 (centres undefined)	.	1.8	.	-3
C[C@@H]1CN([C@H](C)CO)C(=O)c2cc(NC(=O)CCCN(C)C)ccc2O[C@@H]1CN(C)C(=O)Nc1ccccc1	0.29	1.1	.	-3
CC(C)=CCC/C(C)=C/CCC1(C)Oc2c(c(O)cc3c2CN(C(CCC(=O)O)C(=O)O)C3=O)CC1O (centres undefined)	1.5	-0.6	-11	-8
C[C@@H]1CN([C@H](C)CO)C(=O)c2cccc(N(C)C)c2O[C@@H]1CN(C)C(=O)Nc1ccc(C(F)(F)F)cc1	-0.71	1.6	-15	1
COc1ccc(S(=O)(=O)Nc2ccc3c(c2)CC(=O)N([C@@H](C)CO)C[C@@H](C)[C@@H](CN(C)S(=O)(=O)c2cccs2)O3)cc1	0.052	0.1	-51	-12
CCOC(=O)Oc1c(OC)cc(C(=O)O[C@@H]2C[C@@H]3CN4CCc5c([nH]c6cc(OC)ccc56)[C@H]4C[C@@H]3[C@H](C(=O)OC)[C@H]2OC)cc1OC	0.32	.	24	0
CCn1cnc2cc(NCc3nc4ccccc4n3C)ccc21	.	-0.3	.	9
C[C@H]1CN([C@@H](C)CO)C(=O)c2cccc(NS(=O)(=O)c3cn(C)cn3)c2O[C@H]1CN(C)Cc1ccc(Cl)c(Cl)c1	0.24	-0.9	7	-7
C[C@@H]1CN([C@H](C)CO)C(=O)Cc2cc(NC(=O)C3CCCCC3)ccc2O[C@@H]1CN(C)C(=O)Nc1ccc2c(c1)OCO2	-0.039	0.5	-23	22
CCOC(=O)NC(=S)Nc1ccc(F)cc1	-0.12	0.1	-23	-20
COc1ccc2cc(Br)ccc2c1CC(=O)Nc1cccnc1	.	-0.1	.	20
COc1ccc(CN(C)C[C@@H]2Oc3ccc(NC(=O)CCN4CCOCC4)cc3C(=O)N([C@H](C)CO)C[C@H]2C)cc1	-0.0059	1.8	-4	-1
C[C@@H]1CN([C@H](C)CO)C(=O)c2cc(NC(=O)CCCN(C)C)ccc2O[C@@H]1CN(C)C(=O)Nc1cccc2ccccc12	0.018	-1.2	0	3
CCOC(=O)C(Sc1cc(C)nc(N)n1)C(C)=O (centres undefined)	.	1.8	.	-6
COc1ccc(-c2nnc(SCC(=O)Nc3ccc4cn[nH]c4c3)n2-c2ccc(Cl)cc2)cc1	.	-3.5	.	23
Cc1[nH]nc2c1C1=C(C(=O)CCC1)C(c1ccc(N(C)C)cc1)N2 (centres undefined)	-0.11	-0.2	5	-7
(next part)
SMILES	YB-1 expression	PD-1 reverse act	Shh pathway inh	MITF inhib
Cc1ccc(CCC(=O)Nc2ccc(/C=C/c3ccccc3)cc2)o1	.	0.3	.	14
C[C@@H]1CN([C@H](C)CO)C(=O)c2cc(NC(=O)C3CCCCC3)ccc2O[C@H]1CN(C)Cc1ccccc1	-0.014	-1.0	.	-6
CC(C)NC(=O)N(C)C[C@@H]1Oc2ccc(NS(=O)(=O)c3cn(C)cn3)cc2CC(=O)N([C@H](C)CO)C[C@H]1C	-0.17	2.0	-21	-9
Cc1cc(C)c2oc(-c3ccc(C)c(NC(=O)COc4ccccc4C)c3)nc2c1	.	0.0	.	19
COc1ccc(-n2c(SCC(=O)Nc3ccccc3C(F)(F)F)nnc2-c2ccccc2)cc1	.	1.1	.	5
CN(C)C(=O)c1cc(Cl)ccc1Cl	0.048	0.0	-26	3
CCCC(O)/C(=C/C1=C(C(=O)CC(CC(=O)O)OC(N)=O)C(=O)c2cccc(O)c2C1=O)CC(C(=O)O)[N+](C)(C)C (centres undefined)	-0.067	-16	44	12
C[C@H](CO)N1C[C@H](C)[C@@H](CN(C)C(=O)Nc2ccccc2)Oc2ccc(NS(C)(=O)=O)cc2C1=O	-0.095	0.8	-23	3
CN1C(=O)c2ccc(NC(=O)CCn3cnc4ccccc4c3=O)cc2C1=O	.	0.7	.	-13
C[C@@H]1CN([C@@H](C)CO)C(=O)c2cc(NS(C)(=O)=O)ccc2O[C@@H]1CN(C)C(=O)Nc1ccc(C(F)(F)F)cc1	-0.035	-1.2	-18	4
COc1ccc(C2C(C(=O)c3cccs3)C(=O)C(=O)N2CCCN2CCOCC2)cc1 (centres undefined)	.	-0.5	.	-49
Cc1ccc(S(=O)(=O)N(C)C[C@H]2Oc3ccc(NC(=O)C4CCCCC4)cc3CC(=O)N([C@H](C)CO)C[C@H]2C)cc1	0.11	-2.2	26	1
Cc1noc(C)c1S(=O)(=O)Nc1cccc2c1O[C@@H](CN(C)S(=O)(=O)c1ccc(F)cc1)[C@@H](C)CN([C@@H](C)CO)C2=O	-0.23	.	30	-18
COc1ccc(S(=O)(=O)Nc2ccc3c(c2)CC(=O)N([C@H](C)CO)C[C@H](C)[C@H](CN(C)S(=O)(=O)c2cn(C)cn2)O3)cc1	0.33	0.5	-8	1
C[C@@H]1CN([C@H](C)CO)C(=O)c2cccc(NC(=O)C3CCOCC3)c2O[C@H]1CN(C)C(=O)Nc1ccc(F)cc1	-0.22	1.6	-9	-2
COc1ccccc1NC(=O)CCN1C(=O)C2C3CCC(C3)C2C1=O (centres undefined)	.	0.9	.	14
C[C@@H]1CN([C@@H](C)CO)C(=O)Cc2cc(N(C)C)ccc2O[C@@H]1CN(C)S(=O)(=O)c1ccccc1	-0.033	1.7	-4	7
Cc1noc(C)c1NC(=O)Nc1cccc2c1O[C@@H](CN(C)Cc1ccc(-c3ccccc3)cc1)[C@H](C)CN([C@@H](C)CO)C2=O	0.051	.	6	22
Cc1noc(C)c1NC(=O)Nc1cccc2c1O[C@@H](CN(C)C(=O)Nc1ccc(C(F)(F)F)cc1)[C@H](C)CN([C@H](C)CO)C2=O	-0.076	.	-1	6
COc1cc(OC)c(NC(=O)CN(C)S(=O)(=O)c2cc(Cl)ccc2Cl)cc1Cl	.	1.1	.	5
COc1ccc(CC2CCc3ncc(C)cc3C2)cc1 (centres undefined)	-0.55	-0.3	17	-2
Cc1nc(SCC(=O)NCc2ccccc2)c2c(C)c(C)sc2n1	.	0.9	.	2
C[C@H]1CN([C@@H](C)CO)C(=O)Cc2cc(NC(=O)Cn3cnnn3)ccc2O[C@H]1CN(C)C(=O)Nc1cccc2ccccc12	-0.16	0.9	-17	10
C[C@@H]1CCCCO[C@H](CN(C)C(=O)NC2CCCCC2)[C@@H](C)CN([C@H](C)CO)C(=O)c2cc(NC(=O)Cc3ccccc3)ccc2O1	0.52	-3.1	-9	14
CCCCN1COc2ccc(CCNC(=O)c3ccc(Cl)cc3)cc2C1	0.2	-1.4	7	3

Compound profiles, as listed above.
COc1ccc(-c2nnc(SCC(=O)Nc3ccc4cn[nH]c4c3)n2-c2ccc(Cl)cc2)cc1 reads YB-1 expression = .; PD-1 reverse act = -3.5; Shh pathway inh = .; MITF inhib = 23
COc1ccc(C2C(C(=O)c3cccs3)C(=O)C(=O)N2CCCN2CCOCC2)cc1 (centres undefined) reads YB-1 expression = .; PD-1 reverse act = -0.5; Shh pathway inh = .; MITF inhib = -49
C[C@H]1CN([C@@H](C)CO)C(=O)c2cc(NC(=O)NC3CCCCC3)ccc2O[C@H]1CN(C)C(=O)Nc1cccc2ccccc12 reads YB-1 expression = 0.31; PD-1 reverse act = 0.1; Shh pathway inh = -2; MITF inhib = 1

Remaining list, next part
SMILES	YB-1 expression	PD-1 reverse act	Shh pathway inh	MITF inhib
Cc1ccc(S(=O)(=O)N(C)C[C@@H]2Oc3ccc(NC(=O)c4ccncc4)cc3CC(=O)N([C@@H](C)CO)C[C@@H]2C)cc1	-0.088	-0.7	41	-3
C[C@@H]1CN([C@@H](C)CO)C(=O)c2cc(NS(C)(=O)=O)ccc2O[C@H]1CN(C)S(=O)(=O)c1ccc(F)cc1	0.039	-0.7	-42	-3
C[C@@H]1CN([C@@H](C)CO)C(=O)c2cccc(NS(=O)(=O)c3ccc(Cl)cc3)c2O[C@H]1CN(C)S(=O)(=O)c1cccs1	-0.17	.	-16	-10
C[C@H]1CN([C@@H](C)CO)C(=O)c2cccc(NC(=O)c3cnccn3)c2O[C@H]1CN(C)Cc1ccc(Cl)c(Cl)c1	1.8	-2.4	1	-21
C[C@H]1CN([C@@H](C)CO)C(=O)Cc2cc(NS(=O)(=O)c3ccc(F)cc3)ccc2O[C@@H]1CN(C)C(=O)Nc1ccc(C(F)(F)F)cc1	0.2	.	-19	12
C[C@H]1CN([C@@H](C)CO)C(=O)c2cccc(NS(=O)(=O)c3cccs3)c2O[C@@H]1CN(C)C(=O)Nc1ccc(F)cc1	0.23	2.6	-38	-6
C[C@H](CO)N1C[C@H](C)[C@@H](CN(C)Cc2ccc(Cl)c(Cl)c2)Oc2c(NC(=O)C3CC3)cccc2C1=O	-0.49	.	23	0
C[C@H]1CN([C@@H](C)CO)C(=O)c2cccc(NC(=O)Nc3ccccc3)c2O[C@@H]1CN(C)C(=O)Nc1ccc(F)cc1	-0.32	3.2	-40	-3
O=C(O)CSc1nc2ccccc2n1CC(=O)O	.	-0.5	.	-8
C[C@H]1CN([C@@H](C)CO)C(=O)c2cc(NS(=O)(=O)c3cn(C)cn3)ccc2O[C@H]1CN(C)Cc1ccccc1	-0.3	-0.6	.	0
C[C@H]1CN([C@@H](C)CO)C(=O)Cc2cc(NC(=O)Nc3ccc(F)cc3)ccc2O[C@H]1CN(C)C(=O)Nc1ccc(C(F)(F)F)cc1	-0.15	-1.4	-1	-16
CCOc1ccc(NC(=O)NC23CC4CC(CC(C4)C2)C3)cc1	-0.026	-0.7	-162	-47
C[C@H](CO)N1C[C@H](C)[C@@H](CN(C)CC2CCCCC2)Oc2c(NS(C)(=O)=O)cccc2C1=O	-0.22	2.4	-93	-4
CCCn1c(=O)c2[nH]c(C3CCCC3)nc2n(CCC)c1=O	-0.25	.	-7	-8
C[C@H]1CN([C@@H](C)CO)C(=O)c2cc(NC(=O)Nc3ccc(F)cc3)ccc2O[C@@H]1CN(C)C(=O)Nc1cccc2ccccc12	0.11	1.0	-54	-6
C[C@H](CO)N1C[C@H](C)[C@H](CN(C)Cc2ccncc2)Oc2c(NC(=O)Nc3cccc4ccccc34)cccc2C1=O	-0.95	3.1	6	-5
c1coc(CNc2ncnc3nc[nH]c23)c1	-0.24	2.6	-21	-10
C[C@H]1CN([C@@H](C)CO)C(=O)Cc2cc(NC(=O)Nc3ccc(F)cc3)ccc2O[C@H]1CN(C)S(=O)(=O)c1ccc(F)cc1	0.16	.	-28	27
CCOC(=O)c1c(N)n(C2CCCCC2)c2nc3ccccc3nc12	-0.11	0.3	-18	-22
COc1ccc(-c2nnc(SCC(=O)NC(C)(C)C)n2-c2ccccc2)cc1	.	0.2	.	9
C[C@@H]1CN([C@H](C)CO)C(=O)Cc2cc(NC(=O)Cc3cn(C)c4ccccc34)ccc2O[C@H]1CN(C)Cc1ccc(C(=O)O)cc1	0.049	.	2	4
C[C@H]1CN([C@@H](C)CO)C(=O)c2cccc(NS(C)(=O)=O)c2O[C@@H]1CN(C)Cc1ccc2c(c1)OCO2	-0.2	0.4	-15	-15
O=C(O)CNC(=O)CSc1ccc(Cl)cc1	0.12	-1.4	-18	-6
COc1ccc(NC(=O)Nc2ccc3c(c2)CC(=O)N([C@H](C)CO)C[C@@H](C)[C@H](CN(C)Cc2ccc(C(F)(F)F)cc2)O3)cc1	-0.18	.	-33	5
O=C(COc1ccc(Br)cc1CO)Nc1ccccc1	.	-1.3	.	-112

Reprinted at random: two entries already listed.
SMILES	YB-1 expression	PD-1 reverse act	Shh pathway inh	MITF inhib
C[C@H]1CN([C@@H](C)CO)C(=O)c2cccc(NS(=O)(=O)c3cccs3)c2O[C@@H]1CN(C)C(=O)Nc1ccc(F)cc1	0.23	2.6	-38	-6
C[C@H]1CN([C@@H](C)CO)C(=O)c2cc(NS(=O)(=O)c3cn(C)cn3)ccc2O[C@H]1CN(C)Cc1ccccc1	-0.3	-0.6	.	0
